M1 antag – antagonists of rat M1 muscarinic receptor | B-score at 10 µM | Muscarinic acetylcholine receptor M1 (Rattus norvegicus), P08482 | 3.4% of 64,000 active | CHO-M1 cells, Fluo-4 calcium, ACh EC80 antagonist mode; active compounds read low;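 active = calcium fluorescence response, raw or row-and-column corrected B-score, differing from the plate sample mean either way at a set confidence level, mostly lower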
M1 agonist – M1 muscarinic receptor agonists, primary screen, CHO-M1 cells, Fluo-4 calcium, agonist mode; Muscarinic acetylcholine receptor M1; Fluo-4 calcium fluorescence; active compounds read high; B-score at 10 µM; 3% of 64,000 active;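 active = fluorescence rise, raw or as B-score row- and column-corrected plate score, outside the 99.7% band of its plate's samples, either direction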
TNAP act DEA – human TNAP enzyme activators, primary screen, biochemical, luminescent, intermediate phosphate acceptor level; AID 813, 2007; 64,000 tested, under 10 active; Alkaline phosphatase, tissue-nonspecific isozyme (Homo sapiens), P05186; purified TNAP, CDP-star luminescence, 100 mM DEA, 30 min; active compounds read high; scale: 0 levamisole-inhibited, 1 vehicle-only enzyme; activation factor at 20 µM;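 active = activation factor of at least 2 at 20 µM, relative to controls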
Ecoli tolC – growth inhibitors of E. coli tolC mutant, primary screen, strain BW25113 ΔtolC::kan, 384-well | 2.2% of 65,000 active | OD615 | growth inhibition, % at 10 µM (by protocol);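 active = growth inhibition at or above a cutoff equal to the mean over every tested compound plus 3 SD, cut at about 60% in these data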;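 note: growth measured after 20 h incubation at 37 °C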
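signal = optical density read at 615 nm | test system = E. coli ΔtolC::kan strain BW25113 | timing = 20 h compound exposure of bacteria at 37 °C | buffer or medium = LB medium plus 50 µg/mL kanamycin | compound dosing = 10 µM final, single dose | evaluation = % inhibition of E. coli growth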
Autofluor 339 – intrinsic fluorescence of library compounds, ex339/em460 – biochemical, MLSMR library, data from DPM-DC assay, artefact control, profiling panel | compound autofluorescence, ex339/em460 nm, NADH buffer; active compounds read high; 1 = no-compound wells, NADH background | fluorescence fold increase at 10 µM | 5.5% of 65,000 active;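 active = at 10 µM, mean starting fluorescence two-fold or more over control wells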;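 note: signal is the first read of a kinetic run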
SF-1 act – activators of human SF-1, primary screen, cell-based, CHO-K1, Gal4-SF-1 LBD, luciferase luminescence | Steroidogenic factor 1 (Homo sapiens), Q13285 | CHO-K1 Gal4-SF-1 LBD luciferase reporter; % increase over DMSO SF-1-specific signal | activation, % at 10 µM | 1.9% of 65,000 active;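 active = activation above the mean activation of all tested compounds plus 3 SD, cut at about 50% in these data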
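Compound – one dose, 10 µM compound, 1% DMSO · Test system – transient Gal4-SF-1 LBD reporter, CHO-K1 · Input – 4,000 cells in each well · Read-out basis – percent activation relative to DMSO median and mock-transfected background · Replicates – single measurement per compound · Technique – steady-glow luciferase luminescence, read after 15 min reagent incubation · Timing – 20 h compound treatment, 37 °C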
RORA act – activators of orphan receptor RORA, primary screen, cell-based, luminescence. Nuclear receptor ROR-alpha (Homo sapiens), P35398. CHO-K1 Gal4-RORA LBD luciferase reporter; percent increase over mock-subtracted basal signal. activation, % at 10 µM. 1.5% of 65,000 active. AID 560, 2006;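 active = activation above the mean of all tested compounds plus 3 SD, cut at about 49% in these data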;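 note: 0% = DMSO-treated RORA cells and 100% = added signal equal to DMSO minus mock-transfected cells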
Target sequence (P35398 whole entry, looked up, the tested form may be a part): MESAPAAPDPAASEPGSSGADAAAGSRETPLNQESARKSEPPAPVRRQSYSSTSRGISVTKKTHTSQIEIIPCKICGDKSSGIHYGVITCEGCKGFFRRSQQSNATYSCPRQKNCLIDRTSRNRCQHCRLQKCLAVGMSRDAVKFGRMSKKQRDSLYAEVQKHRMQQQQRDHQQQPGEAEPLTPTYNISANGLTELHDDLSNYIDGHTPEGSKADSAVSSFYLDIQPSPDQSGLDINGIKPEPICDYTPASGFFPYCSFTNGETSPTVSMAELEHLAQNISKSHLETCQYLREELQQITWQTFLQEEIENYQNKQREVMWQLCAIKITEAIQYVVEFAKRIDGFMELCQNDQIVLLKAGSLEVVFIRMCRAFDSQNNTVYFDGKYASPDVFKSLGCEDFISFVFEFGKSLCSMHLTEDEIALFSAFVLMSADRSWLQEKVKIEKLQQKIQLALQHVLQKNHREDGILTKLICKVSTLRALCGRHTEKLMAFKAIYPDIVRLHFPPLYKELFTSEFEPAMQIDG
Ec RNAP inh – E. coli RNAP inhibitors, biochemical; inhibition, %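 (tested at 10 µM)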; 0.2% of 62,000 active; DNA-directed RNA polymerase subunit beta (Escherichia coli (strain K12)), P0A8V2; AID 559, 2006; E. coli RNA polymerase, fluorescence transcription assay; in the data active = inhibition above about 20%;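 note: 0% = enzyme without compound and 100% = no enzyme blank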
The depositor's hits bear a star; nt = no result given. An excerpt. The share of hits here may be higher or lower than overall.

A first look:
Abbreviations: A = M1 antag; B = M1 agonist; C = TNAP act DEA; D = Ecoli tolC; E = Autofluor 339; F = SF-1 act; G = RORA act; H = Ec RNAP inh
1: CC(=O)Nc1ccc(S(=O)(=O)N2CCC(N(C)CCC(C)C)CC2)cc1
  A: 0.00853; B: 1.43; C: 0.9; D: -10.0; E: 1.05; F: 2.5; G: -14.4; H: 3.2

2: CCOC(=O)N1CCN(c2c(F)cc3[nH]c(=S)[nH]c3c2Br)CC1
  A: -0.0616; B: 0.126; C: 1; D: 29.6; E: 1.1; F: -7.2; G: 26.5; H: -1.1

3: Fc1ccccc1CCNc1nnnn1-c1ccccc1
  A: -0.44; B: -0.596; C: 0.9; D: -1.4; E: 1.11; F: -3.5; G: -1.8; H: 2.3

4: O=C(Nc1ccc2c(c1)oc1ccccc12)C1CC1
  A: 0.44; B: -0.711; C: 1; D: -11.4; E: 1.09; F: 35.6; G: 44.8; H: 0.1

5: C=CCNC(=O)c1ccc2c(c1)nnn2C
  A: -0.242; B: -0.965; C: 0.9; D: -5.5; E: 1.1; F: -1.0; G: -18.2; H: 7.3

6: CCCn1nnnc1SCC(=O)N(C(C)C)C(C)C
  A: 0.0316; B: 0.553; C: 0.9; D: -15.2; E: 1.03; F: 5.3; G: -2.9; H: 7.2

7: COc1ccc(C(=O)CSc2nnc(CNC(=O)c3ccc(OC)c(OC)c3)n2C)cc1
  A: -0.119; B: 0.152; C: 0.9; D: -11.4; E: 1.11; F: 8.5; G: 9.4; H: 4.7

The listing, from the first entry:
Abbreviations: A = M1 antag; B = M1 agonist; C = TNAP act DEA; D = Ecoli tolC; E = Autofluor 339; F = SF-1 act; G = RORA act; H = Ec RNAP inh
1: CC(=O)Nc1ccc(S(=O)(=O)N2CCC(N(C)CCC(C)C)CC2)cc1
  A: 0.00853; B: 1.43; C: 0.9; D: -10.0; E: 1.05; F: 2.5; G: -14.4; H: 3.2

2: CCOC(=O)N1CCN(c2c(F)cc3[nH]c(=S)[nH]c3c2Br)CC1
  A: -0.0616; B: 0.126; C: 1; D: 29.6; E: 1.1; F: -7.2; G: 26.5; H: -1.1

3: Fc1ccccc1CCNc1nnnn1-c1ccccc1
  A: -0.44; B: -0.596; C: 0.9; D: -1.4; E: 1.11; F: -3.5; G: -1.8; H: 2.3

4: O=C(Nc1ccc2c(c1)oc1ccccc12)C1CC1
  A: 0.44; B: -0.711; C: 1; D: -11.4; E: 1.09; F: 35.6; G: 44.8; H: 0.1

5: C=CCNC(=O)c1ccc2c(c1)nnn2C
  A: -0.242; B: -0.965; C: 0.9; D: -5.5; E: 1.1; F: -1.0; G: -18.2; H: 7.3

6: CCCn1nnnc1SCC(=O)N(C(C)C)C(C)C
  A: 0.0316; B: 0.553; C: 0.9; D: -15.2; E: 1.03; F: 5.3; G: -2.9; H: 7.2

7: COc1ccc(C(=O)CSc2nnc(CNC(=O)c3ccc(OC)c(OC)c3)n2C)cc1
  A: -0.119; B: 0.152; C: 0.9; D: -11.4; E: 1.11; F: 8.5; G: 9.4; H: 4.7

8: CCOc1ccccc1N1CCN(Cc2ccc(OC)c(OC)c2)CC1
  A: nt; B: nt; C: 0.9; D: -5.3; E: 1.12; F: -26.3; G: -19.9; H: 3.0

9: CCc1ccccc1NC1c2ccccc2C(=O)N1c1cccnc1 (stereo unspecified)
  A: 0.0802; B: 0.366; C: 1; D: 4.9; E: 1.08; F: -5.1; G: 2.0; H: 5.8

10: CC(NC(=O)CC(O)(C(F)(F)F)C(F)(F)F)c1ccccc1 (stereo unspecified)
  A: -0.0645; B: -0.35; C: 0.9; D: 7.5; E: 1.09; F: -7.5; G: -10.9; H: 10.6

11: CCOC(=O)c1cnc(-c2ccccc2)[nH]c1=O
  A: 0.33; B: 0.303; C: 0.9; D: -13.5; E: 1.08; F: -1.9; G: 5.4; H: 5.1

12: Cc1nc2sc(C(c3ccc(Cl)cc3)N3CCN(c4ccccc4F)CC3)c(O)n2n1 (stereo unspecified)
  A: -0.895; B: -0.0194; C: 1; D: 16.2; E: 1.05; F: 0.6; G: -1.9; H: 8.7

13: CCOC(=O)c1c(C)c(C(=O)Nc2cc(OC)ccc2OC)c(C)n1CC
  A: 0.343; B: 0.781; C: 0.9; D: 68.0*; E: 1.07; F: 12.6; G: 21.0; H: 2.3

14: CCCCN(CCCC)c1nc2ccccc2nc1C(C#N)C(=O)NCCCOC (stereo unspecified)
  A: -15.6*; B: 434*; C: 0.8; D: 18.5; E: 1.54; F: -3.3; G: -7.0; H: 6.1

Compound activity as filed in PubChem BioAssay.
